# Assay outcomes (PubChem BioAssay)
# MLL AF4-AF9 inh – inhibitors of human MLL-AF4/AF9 interaction. P42568. AlphaScreen, biotin-AF4 peptide binding to FLAG-AF9. inhibition, % at 10 µM. 350,000 compounds, 0.47% hits. AID 651704;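 active means every replicate reaching a set inhibition limit, whatever the replicate mean, cut at about 25% in these data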;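 further: 0% = plate neutral control median and 100% = total signal loss; the record names both 10 and 1 µM as test concentration; the first replicate is given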
# Target sequence (P42568 whole entry, looked up): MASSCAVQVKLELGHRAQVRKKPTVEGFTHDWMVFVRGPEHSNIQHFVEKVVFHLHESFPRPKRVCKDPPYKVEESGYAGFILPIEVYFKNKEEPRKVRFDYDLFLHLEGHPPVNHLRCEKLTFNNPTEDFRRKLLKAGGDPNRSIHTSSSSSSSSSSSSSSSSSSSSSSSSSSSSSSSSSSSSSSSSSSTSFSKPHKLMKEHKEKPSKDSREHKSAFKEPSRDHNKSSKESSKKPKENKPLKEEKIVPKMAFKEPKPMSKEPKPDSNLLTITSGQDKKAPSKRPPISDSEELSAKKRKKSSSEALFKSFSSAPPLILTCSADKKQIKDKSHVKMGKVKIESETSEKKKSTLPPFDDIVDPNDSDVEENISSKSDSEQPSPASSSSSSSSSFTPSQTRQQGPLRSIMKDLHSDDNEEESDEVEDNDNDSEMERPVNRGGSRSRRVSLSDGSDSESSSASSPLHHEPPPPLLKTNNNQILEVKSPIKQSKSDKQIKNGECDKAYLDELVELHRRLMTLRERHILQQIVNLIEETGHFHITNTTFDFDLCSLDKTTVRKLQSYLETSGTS
# Numbers without * were called inactive; & = joins results of further samples. Not all compounds are listed; the hit share may differ from the screen's.
compound | MLL AF4-AF9 inh
C[C@@H]1CN([C@@H](C)CO)C(=O)Cc2cc(NS(C)(=O)=O)ccc2O[C@@H]1CN(C)Cc1ccc(Cl)c(Cl)c1 | 0.9
C[C@H](CO)N1C[C@H](C)[C@H](CN(C)S(=O)(=O)c2ccccc2)OCCCC[C@H](C)Oc2ccc(NC(=O)CCCN(C)C)cc2C1=O | 4.3
COc1ccc(NC(=O)N[C@H]2CC[C@@H](CC(=O)NC3CCC3)O[C@H]2CO)cc1 | 0.7
Fc1ccc(-c2nc3ccc(Br)cn3c2Cc2cccc(Cl)c2)cc1 | -38
O=C(N[C@@H]1CC[C@@H](CCn2cc(-c3ccccn3)nn2)O[C@H]1CO)c1ccccc1 | 0.0
O=C(C[C@H]1C[C@H]2c3cc(NS(=O)(=O)c4ccc(F)cc4)ccc3O[C@H]2[C@H](CO)O1)NCc1ccc(Cl)cc1 | 0.9
COc1ccc(CN2[C@H](CO)[C@@H]3c4ccccc4N(C(=O)NC(C)C)C[C@@H]32)cc1 | 2.0
C[C@@H]1CN([C@H](C)CO)C(=O)Cc2cc(NC(=O)Cc3cn(C)c4ccccc34)ccc2O[C@@H]1CN(C)Cc1ccc2c(c1)OCO2 | 10
C[C@H](NC(=O)C[C@@H]1C[C@@H]2c3cc(NC(=O)C4CCC4)ccc3O[C@@H]2[C@@H](CO)O1)c1ccccc1 | -3.7
O=C(Nc1ccc(F)cc1)N[C@H]1CC[C@@H](CCNC(=O)c2cc(Cl)cc(Cl)c2)O[C@@H]1CO | 1.1
CN1C(=O)c2cc(NC(=O)c3cccc(F)c3)ccc2OC[C@H]2O[C@@H](CC(=O)N3CCc4ccccc4C3)CC[C@@H]21 | 0.6
Cc1nn(CC(C)C)c(Cl)c1C(=O)NCC(C)(C)N1CCOCC1 | -3.6

# (list continues)
compound | MLL AF4-AF9 inh
N#Cc1cccc(-c2ccc3c(c2)[C@H]2[C@H](CCN2C(=O)C2CCCCC2)[C@@H](CO)N3)c1 | 3.5
CC(C)NC(=O)N[C@@H]1CC[C@H](CC(=O)NCCCN(C)C)O[C@@H]1CO | 0.2
C[C@H]1CN([C@@H](C)CO)C(=O)c2cccc(NC(=O)c3cnccn3)c2O[C@@H]1CN(C)C | -1.2
COc1ccc2c3c([nH]c2c1)[C@@H](CO)N(C(=O)c1ccc(F)cc1)CC31CN(C)C1 | 5.8
C[C@@H]1CN([C@@H](C)CO)C(=O)c2cc(NC(=O)Cc3ccccc3)ccc2O[C@@H]1CN(C)Cc1ccccc1 | -1.5
C[C@@H](NC(=O)C[C@@H]1C=C[C@@H](NC(=O)Cc2ccccn2)[C@@H](CO)O1)c1ccccc1 | 6.7
C[C@H]1CCCCO[C@@H](CN(C)C(=O)C2CCCCC2)[C@@H](C)CN([C@@H](C)CO)C(=O)c2cc(NS(=O)(=O)c3cccs3)ccc2O1 | -9.5
C[C@H]1CN([C@@H](C)CO)C(=O)c2cc(-c3cccc(F)c3)cnc2O[C@@H]1CN(C)C(=O)c1ccccn1 | -2.8
CCC(=O)N(C)C[C@@H]1Oc2ncc(C#Cc3ccc(OC)cc3)cc2C(=O)N([C@@H](C)CO)C[C@@H]1C | -0.3
O=C(C[C@@H]1CC[C@H](NC(=O)C2CCOCC2)[C@H](CO)O1)NCC1CC1 | -2.8
COc1cccc(CNc2nc3cc(-c4cccc(C(F)(F)F)c4)sc3c(=O)n2C)c1OC | 1.1
COc1cc(C)ccc1S(=O)(=O)NC(=O)C1(C)CCN1C(=O)Cc1ccc(Cl)cc1Cl (stereo not given) | 1.2

# Further entries follow.
compound | MLL AF4-AF9 inh
C[C@@H]1CN([C@@H](C)CO)S(=O)(=O)c2ccc(-c3ccccc3)cc2O[C@H]1CN(C)CC1CC1 | 2.4
Cc1ccc(S(=O)(=O)Nc2ccc3c(c2)C(=O)N([C@@H](C)CO)C[C@H](C)[C@H](CN(C)S(=O)(=O)c2ccc(F)cc2)OCCCC[C@H](C)O3)cc1 | -2.1
C[C@H]1CCCCO[C@H](CN(C)C)[C@@H](C)CN([C@@H](C)CO)C(=O)c2cc(NC(=O)Nc3cccc4ccccc34)ccc2O1 | -2.7
CC(=O)Nc1cc(-c2ccc(N3CCN(C)CC3)cc2)cn2c(-c3ccc(F)c(Cl)c3)cnc12 | 27*
CCNC(=O)C[C@H]1CC[C@H](NS(=O)(=O)c2ccc(C)cc2)[C@@H](CO)O1 | -5.3
CC1(C(=O)Nc2cccc(C#N)c2)CCN1C(=O)CCc1ccccc1 (stereo not given) | 0.5
CCCNC(=O)Nc1ccc2c(c1)C(=O)N(C)[C@H]1CC[C@H](CC(=O)OC)O[C@@H]1CO2 | -2.5
O=C(Nc1ccc2c(c1)[C@H]1C[C@@H](CC(=O)N3CCOCC3)O[C@H](CO)[C@H]1O2)Nc1ccccc1F | 2.8
COCC(=O)N(C)C[C@H]1Oc2ncc(C#C[C@@H](C)O)cc2C(=O)N([C@@H](C)CO)C[C@H]1C | -2.7
CNC[C@@H]1Oc2ccc(NC(=O)NC(C)C)cc2CC(=O)N([C@H](C)CO)C[C@H]1C | -0.7
CN(C)C(=O)[C@@H]1[C@@H](CO)[C@@H]2Cn3c(ccc(-c4cncnc4)c3=O)[C@@H]2N1Cc1cc(F)ccc1F | -0.8
C[C@@H]1CN([C@@H](C)CO)C(=O)Cc2cc(NC(=O)CCCN(C)C)ccc2O[C@H]1CN(C)C(=O)Nc1ccccc1 | -5.4

# Reformatted as labelled records: entries from further up.
> C[C@@H]1CN([C@H](C)CO)C(=O)Cc2cc(NC(=O)Cc3cn(C)c4ccccc34)ccc2O[C@@H]1CN(C)Cc1ccc2c(c1)OCO2
  MLL AF4-AF9 inh: 10
> C[C@H](NC(=O)C[C@@H]1C[C@@H]2c3cc(NC(=O)C4CCC4)ccc3O[C@@H]2[C@@H](CO)O1)c1ccccc1
  MLL AF4-AF9 inh: -3.7
> O=C(Nc1ccc(F)cc1)N[C@H]1CC[C@@H](CCNC(=O)c2cc(Cl)cc(Cl)c2)O[C@@H]1CO
  MLL AF4-AF9 inh: 1.1
> CN1C(=O)c2cc(NC(=O)c3cccc(F)c3)ccc2OC[C@H]2O[C@@H](CC(=O)N3CCc4ccccc4C3)CC[C@@H]21
  MLL AF4-AF9 inh: 0.6

# Carrying on:
compound | MLL AF4-AF9 inh
CC1=C(C(=O)N(C(C)C)C(C)C)CC(CC(=O)NCCc2ccccn2)C(=O)N1Cc1ccc(F)cc1 (stereo not given) | 0.5
CCCC(=O)Nc1ccc2c(c1)C(=O)N(C)C[C@@H](OC)[C@@H](C)CN(C(C)=O)[C@@H](C)CO2 | 1.4
COc1cccc(Nc2nc(C(N)COCc3ccccc3)cs2)n1 (stereo not given) | 21
C[C@@H]1CN([C@H](C)CO)C(=O)c2cc(Br)cnc2O[C@@H]1CN(C)C(=O)Nc1ccccc1 | 1.3&-2.2
CO[C@H]1CN(C)C(=O)c2ccc(NC(=O)Nc3ccc(C(F)(F)F)cc3)cc2OC[C@@H](C)NC[C@@H]1C | 7.3
COC(=O)C[C@H]1CC[C@H]2[C@@H](COC[C@@H](O)CN2CCC(F)(F)F)O1 | -0.2
Cc1cc2nc(-c3cccc(Cl)c3)c(CC(C)(C)C)n2c(C)c1Br | -2.1
Cc1noc(C)c1S(=O)(=O)Nc1ccc2c(c1)C(=O)N([C@@H](C)CO)C[C@H](C)[C@@H](CN(C)C(=O)Nc1ccc(F)cc1)OCCCC[C@H](C)O2 | -2.9
COCC(=O)N1[C@H](C#N)[C@H](c2ccccc2-c2cccc(OC)c2)[C@H]1CO | -1.2
C(=C\c1ccccc1)/CN1CCN(C(c2nnnn2Cc2ccccc2)C2CC2)CC1 (stereo not given) | 7.4
C[C@@H]1CN([C@H](C)CO)C(=O)Cc2cc(NC(=O)Nc3ccc(C(F)(F)F)cc3)ccc2O[C@H]1CN(C)Cc1ccc(-c2ccccc2)cc1 | -3.5
CC(C)NC(=O)N[C@H]1CC[C@@H](CCNC(=O)C2CCOCC2)O[C@H]1CO | -0.5

# Carrying on:
compound | MLL AF4-AF9 inh
COc1ccc(C#Cc2cnc3c(c2)C(=O)N([C@@H](C)CO)C[C@@H](C)[C@@H](CN(C)C(=O)CN(C)C)O3)cc1 | 10
C[C@H]1CN([C@@H](C)CO)C(=O)c2cc(NC(=O)C3CCCCC3)ccc2O[C@@H]1CN(C)Cc1ccc2c(c1)OCO2 | -0.2
CO[C@@H]1CN(C)C(=O)c2cc(NC(=O)c3ccno3)ccc2OC[C@@H](C)N(S(C)(=O)=O)C[C@H]1C | -3.7
CC(C)CC#Cc1ccc2c(c1)O[C@H](CN(C)C(=O)c1ccccn1)[C@@H](C)CN([C@@H](C)CO)S2(=O)=O | 3.0
Cc1ccc(S(=O)(=O)Nc2ccc3c(c2)C(=O)N([C@H](C)CO)C[C@@H](C)[C@@H](CN(C)C)O3)cc1 | -6.0
CN1CCN([C@H]2CS(=O)(=O)N[C@@H]2COCc2ccccc2)CC1 | -15
CO[C@H]1CN(C)C(=O)c2ccc(NC(=O)C3CC3)cc2OC[C@@H](C)N(CC2CCOCC2)C[C@H]1C | -0.1
C[C@H]1CN([C@@H](C)CO)C(=O)c2cc(NS(=O)(=O)c3ccccc3)ccc2O[C@H]1CN(C)S(=O)(=O)c1ccccc1 | -0.4
COc1ccc(NC(=O)Nc2ccc3c(c2)CC(=O)N([C@@H](C)CO)C[C@H](C)[C@H](CN(C)S(=O)(=O)c2c(C)noc2C)O3)cc1 | 2.5
O=C(NCc1cccc(F)c1)Nc1nnc([C@@H]2C[C@H](O)[C@@H](CO)O2)s1 | 0.1
COc1ccc(OCC2CN(C3CCCC3)S(=O)(=O)CCO2)cc1 (stereo not given) | -1.6
COc1ccc(NC(=O)N(C)C[C@H]2Oc3ccc(NC(=O)Nc4c(C)noc4C)cc3CC(=O)N([C@@H](C)CO)C[C@@H]2C)cc1 | -2.4

# Given with the structure last: 2 of the compounds above
MLL AF4-AF9 inh | compound
2.5 | COc1ccc(NC(=O)Nc2ccc3c(c2)CC(=O)N([C@@H](C)CO)C[C@H](C)[C@H](CN(C)S(=O)(=O)c2c(C)noc2C)O3)cc1
-0.1 | CO[C@H]1CN(C)C(=O)c2ccc(NC(=O)C3CC3)cc2OC[C@@H](C)N(CC2CCOCC2)C[C@H]1C

# Later entries:
compound | MLL AF4-AF9 inh
C[C@@H]1CN([C@@H](C)CO)C(=O)c2cccc(N(C)C)c2O[C@H]1CN(C)Cc1ccc(C(F)(F)F)cc1 | 2.1
Cc1cc(C)cc(C(O)c2ncc(-c3ccccc3Cl)[nH]2)c1 (stereo not given) | 4.1
C/C=C/c1ccc([C@H]2[C@@H](CO)N3C(=O)CN(C(=O)CC4CC4)C[C@@H]23)cc1 | -5.9
CC(NC(=O)COC(=O)c1ccc2c(=O)n3c(nc2c1)CCCCC3)c1ccc(F)cc1 (stereo not given) | 2.9
COC(=O)[C@H]1[C@H](CO)[C@H]2Cn3c(ccc(-c4ccccc4OC)c3=O)[C@H]2N1C(=O)c1cccnc1 | -2.0
COc1ccc(S(=O)(=O)Nc2cccc3c2O[C@H](CN(C)S(=O)(=O)c2ccc(Cl)cc2)[C@@H](C)CN([C@H](C)CO)C3=O)cc1 | -1.1
C#CCNC(=O)C[C@@H]1C[C@@]2(C(=O)OC)CCCCC=C2N(Cc2cccc3ccccc23)C1=O | 3.0
COCC(=O)Nc1ccc2c(c1)[C@@H]1C[C@@H](CC(=O)NCc3ccncc3)O[C@@H](CO)[C@@H]1O2 | -1.8
OCC[C@@H]1C[C@H](O)[C@@H](O)[C@@]2(OCc3ccc4ccccc4c32)O1 | 0.1
O=C(c1ccccn1)N1CC2(C1)[C@@H](c1ccccc1)[C@@H](CO)N2C(=O)C1CCCCC1 | -1.8
C[C@@H]1CN([C@H](C)CO)S(=O)(=O)c2ccc(C#Cc3ccccc3)cc2O[C@@H]1CN(C)C(=O)C1CC1 | -0.7
C[C@@H]1CN([C@H](C)CO)C(=O)c2ccccc2-c2ccccc2CO[C@@H]1CN(C)C(=O)Nc1cccc(Cl)c1Cl | -0.2

# (continued)
compound | MLL AF4-AF9 inh
O=C(CN1CCOCC1)NCC[C@@H]1CC[C@H](NC(=O)Nc2ccc(F)cc2)[C@H](CO)O1 | -0.1
Cc1noc(C)c1S(=O)(=O)N(C)C[C@H]1Oc2ccc(NC(=O)NC3CCCCC3)cc2CC(=O)N([C@@H](C)CO)C[C@H]1C | -1.9
O=C(Nc1ccc(Cl)c(Cl)c1)N[C@H]1CC[C@@H](CCn2cc(C3CC3)nn2)O[C@H]1CO | 2.9
O=C(C[C@H]1C=C[C@@H](NC(=O)C2CCOCC2)[C@H](CO)O1)Nc1ccccc1 | -2.0
CCCNC(=O)N1CC2(CCN(Cc3cccc(F)c3)CC2)c2c([nH]c3cc(OC)ccc23)[C@H]1CO | 15
C[C@@H]1CN([C@H](C)CO)C(=O)c2cc(C3=CCCC3)cnc2O[C@@H]1CN(C)C(=O)CN(C)C | 0.0
C[C@@H]1CN([C@H](C)CO)C(=O)c2cc(NC(=O)c3ccncc3)ccc2O[C@@H](C)CCCCO[C@@H]1CN(C)CC1CC1 | 2.4
C[C@@H]1CN([C@H](C)CO)C(=O)c2cc(NS(=O)(=O)c3ccc(F)cc3)ccc2O[C@@H](C)CCCCO[C@H]1CN(C)Cc1ccc2c(c1)OCO2 | 4.4
CCCC[C@@H]1C=C(C(=O)O)[C@H](c2ccc(C#N)cc2)N1S(=O)(=O)c1ccc(C)cc1 | -2.5
CC(C)NC(=O)N(C)C[C@H]1Oc2ccc(NS(=O)(=O)c3ccccc3)cc2C(=O)N([C@@H](C)CO)C[C@@H]1C | 2.0
Cn1c(COc2ccccc2)nnc1SCC(=O)Nc1nnc(C2CC2)s1 | -24
CCCN(C)C[C@H]1OCCCC[C@@H](C)Oc2ccc(NC(=O)CCCN(C)C)cc2C(=O)N([C@@H](C)CO)C[C@H]1C | -3.5
CCCS(=O)(=O)NC(=O)C1(C)CCN(C(=O)c2cccc(C)c2C)C1 (stereo not given) | 1.2
CC(C)[C@@H](N)C(=O)NC[C@H]1O[C@@H](n2cnc3c(N)ncnc32)[C@H](O)[C@@H]1O | -5.6
CC(C)NC(=O)N(C)C[C@H]1OCCCC[C@@H](C)Oc2ccc(NC(=O)c3ccncc3)cc2C(=O)N([C@@H](C)CO)C[C@@H]1C | -9.6
